Hedgehog cleavage: Hh protein inhibition, biochemical readout – plate reader, single concentration, primary screen (AID 588832); Biochemical plate reader assay, Hedgehog inhibition; active compounds read high; inhibition, % at 30.3 µM; 8,000 tested, under 10 active; in the data active = inhibition from about 57%;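 also: 0% = neutral control wells and 100% = positive control wells; cholesterol-driven self-cleavage of fly hedgehog protein by fluorescence polarization; read one hour after cholesterol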
Numbers without * were called inactive; & = joins results of further samples. These rows are one share of the data, so the mix of outcomes need not match the whole.

Hedgehog cleavage	Molecule
0	COc1cccc(C2CC(c3ccc(C)cc3)Nc3nc(N)nn32)c1 (centres undefined)
3	O=S(=O)(NCC(c1cccnc1)N1CCN(Cc2ccccc2)CC1)c1ccccc1 (centres undefined)
5	CCC(C(=O)NC1CCCCC1)n1c(SCc2cccc(C)c2)nc2ccncc21 (centres undefined)
5	CCOc1ccc(NC(=O)c2cc(S(=O)(=O)N3CCOCC3)cn2C)cc1
7	CCc1cccc(Nc2cc(C)nc3nc(C)nn23)c1
5	O=C(Cc1ccc(NC2=NC3CS(=O)(=O)CC3S2)cc1)NCc1ccccc1Cl (centres undefined)
4	Cc1cc(F)ccc1NC(=O)c1cc(S(=O)(=O)N2CCCC2)cn1C
10	CC(SC1=NCCS1)C(=O)Nc1nnc(-c2ccc(F)cc2)s1 (centres undefined)
7	CC1=C(C(=O)NCc2ccccn2)C2(CCC(C)CC2)OC1=O (centres undefined)
10	CC(C)=C[C@H]1C[C@H](C)[C@H]2CC[C@H](C)c3c(O[C@@H]4O[C@@H](C)[C@@H](O)[C@@H](O)[C@@H]4O)c(O)c(C)c1c32
5	OC1COC(c2ccccc2)OC1C1OC(c2ccccc2)OCC1O (centres undefined)
1	COCCn1c(SCC(=O)Nc2cc(C)on2)nnc1-c1c[nH]c2ccccc12
20	CCOC(=O)CN1CC23C=CC(O2)C(C(=O)NCc2ccccc2OC)C3C1=O (centres undefined)
11	CCOc1ccc(-c2cc(CCCC(=O)N3CCN(c4ccc(OC)cc4)CC3)no2)cc1
-2	CCCCN(CC)C(=O)Cn1ncc2c1-c1cc(C)ccc1OC2
19	Cc1cccc2c1-c1sc(C(=O)N3CCCCC3)cc1CO2
17	CCOc1ccccc1C1CC(c2ccc(F)cc2)Nc2nc(N)nn21 (centres undefined)
2	Cc1ccc(C(=O)NCCn2cc(SCC(=O)N3CCOCC3)c3ccccc32)cc1
11	COc1cc(C(=O)N2CCN(c3cccc(C)c3C)CC2)cc(OC)c1OC
5	COC(=O)COc1cccc2c(=O)n(CC(=O)NCc3ccc(F)cc3)ccc12
9	O=C1CC(c2ccc(S(=O)(=O)NC3CC3)cc2)CN1 (centres undefined)
24	COc1ccc(C)cc1NC(=O)c1nnn(Cc2cc(C)ccc2C)c1N
0	COc1ccc(-c2nnc(NC(=O)C(C)C)s2)c(OC)c1
3	CCN1CCN(Cc2nc3c(c(=O)n(C)c(=O)n3C)n2CCc2ccccc2)CC1
11	Cc1ccc(OCC(=O)N(Cc2ccco2)C2CCS(=O)(=O)C2)cc1C (centres undefined)
5	CCCCNC(=O)c1ccc2c(c1)N(CC)C(=O)c1ccccc1S2(=O)=O
7	O=C(Nc1ccc(F)cc1)c1cccc2c1C(=O)N(CC1CCCO1)C2 (centres undefined)
10	CC(NC(=O)C1CCCCC1)C(c1cccs1)N1CCN(C)CC1 (centres undefined)
5	CCOc1ccc(NC(=O)C2CCN(C(=O)N3CCOc4ccccc43)CC2)cc1
5	COC1OC(CO)C(N(C)C(C)=O)C1O (centres undefined)
5	CCC1CCCCN1Cc1nc2c(c(=O)n(C)c(=O)n2C)n1Cc1cccc2ccccc12 (centres undefined)
29	CCOc1ccc2nc(NC(=O)C3CCN(S(=O)(=O)c4cnc[nH]4)CC3)sc2c1
-9	Cc1cc(C)cc(NC(=O)CSc2nnc(Cn3c(=O)sc4ccccc43)n2C)c1
12	Cc1ccc2c(c1)N(C(=O)CCC(=O)N1CCC(C(N)=O)CC1)CC(C)O2 (centres undefined)
7	CCOC(=O)c1ccc(NC(=O)CSc2nc3c(c(=O)n2-c2ccccc2OC)SCC3)cc1
3	CCc1c(C)c2ccc(OC(C)C(=O)NC(Cc3c[nH]c4ccc(O)cc34)C(=O)O)c(C)c2oc1=O (centres undefined)
4	O=c1cc(-c2ccccc2Cl)c2c([nH]1)CCC2
5	CC(C)Cc1cc(C(=O)N2CCN(c3ccc(F)cc3)CC2)no1
4	CN1CCc2c(sc(NC(=O)c3ccc(S(=O)(=O)N4CCOCC4)cc3)c2C(N)=O)C1
7	CCOc1ccc(S(=O)(=O)N2CCN(c3ccc(C)cc3C)CC2)cc1
2	COc1ccc(OC)c(NC(=O)c2nnn(Cc3ccc(Br)cc3F)c2N)c1
20	CC(C)c1ccc(S(=O)(=O)N2CCN(C(=O)c3cc(-c4ccccc4)n[nH]3)CC2)cc1
5	Cc1oc(-c2ccccc2F)nc1CS(=O)CC(=O)NCc1cccs1 (centres undefined)
5	COc1ccc2c(c1OC)C(=O)O[C@@H]2[C@H]1c2c(cc3c(c2OC)OCO3)CCN1C
20	O=C(O)c1ccc(CSc2nnc(-c3ccco3)o2)cc1

Some of these compounds in order of their number in Hedgehog cleavage, smallest number first:
Hedgehog cleavage	Molecule
4	CN1CCc2c(sc(NC(=O)c3ccc(S(=O)(=O)N4CCOCC4)cc3)c2C(N)=O)C1
5	Cc1oc(-c2ccccc2F)nc1CS(=O)CC(=O)NCc1cccs1 (centres undefined)
12	Cc1ccc2c(c1)N(C(=O)CCC(=O)N1CCC(C(N)=O)CC1)CC(C)O2 (centres undefined)

Sorted by heavy-atom count (smallest number first): part of the list above
Hedgehog cleavage	Molecule
7	CCc1cccc(Nc2cc(C)nc3nc(C)nn23)c1
4	Cc1cc(F)ccc1NC(=O)c1cc(S(=O)(=O)N2CCCC2)cn1C
11	COc1cc(C(=O)N2CCN(c3cccc(C)c3C)CC2)cc(OC)c1OC

More records
Hedgehog cleavage	Molecule
15	Cc1noc(C)c1S(=O)(=O)N1CCCC(C(=O)N2CCc3ccccc3C2)C1 (centres undefined)
3	CCC(C(=O)NC1CCCCC1)n1c(SCc2ccccc2F)nc2ccncc21 (centres undefined)
4	Cc1oc(-c2ccccc2F)nc1CS(=O)(=O)CC(=O)NCCCc1ccccc1
4	Cc1nn(C)c(C)c1S(=O)(=O)N1CCCC(C(=O)NC2CCCCCC2)C1 (centres undefined)
7	CC1CN(C(=O)CCC(=O)NCc2ccccc2)c2cc(Cl)ccc2O1 (centres undefined)
29	CCOC(=O)CN1c2ccccc2NC(=O)CC1C (centres undefined)
4	CCOCCn1c(SCc2ccc(C)cc2)nc2c1c(=O)[nH]c(=O)n2C
9	Cc1ccc2c(c1)N(C(=O)CCC(=O)N1CCCCC1)CCO2
0	Cc1ccc2c(c1)NC(=O)C(CC(=O)NCCCN1CCCCC1C)O2 (centres undefined)
1	CN1C(=O)C(C)(C)c2cc(S(=O)(=O)N3CCN(c4ccccc4F)CC3)ccc21
13	COc1cccc(C2=NOC(C(=O)N3CCc4ccccc4C3)C2)c1 (centres undefined)
17	Cc1csc(SCCn2c(N3CCOCC3)nc3c2c(=O)[nH]c(=O)n3C)n1
19	CCOC(=O)c1c(NC(=O)CSc2c[nH]c3ccccc23)sc2c1CCCC2
2	CCOC(=O)N1CCN(C(=O)c2ccc3c(c2)N(Cc2ccccc2)CCS3)CC1
5	O=C(O)c1cc(=O)[nH]c2ccccc12
7	CCOc1ccc(NC(C)=O)cc1N
2	CC(=O)Nc1ccc(C(=O)N2CCc3cc4c(cc3C2C)OCCCO4)cc1 (centres undefined)
10	COC1C(=O)CCC2(CO2)C1(O)C1(C)OC1CC=C(C)C (centres undefined)
10	O=C(Nc1ccc(Br)cc1)C(c1ccccc1)c1ccccc1
17	CC1CSc2nnc(CCc3ccccc3)n21 (centres undefined)
1	CN1CCN(CCCNC(=O)c2cc3c(=O)n(C)c4ccccc4c3s2)CC1
7	COc1ccc(C(=O)/C=C/c2ccc(O)cc2)cc1
-1	COc1ccc(S(=O)(=O)N2CCOC2CNC(=O)C(=O)NCCc2c[nH]c3ccccc23)cc1 (centres undefined)
24	COc1cccc2cc(C(=O)N3CCC(C)CC3)c(=O)oc12
2	CCCC(C)CO (centres undefined)
7	Cc1cccc(NS(=O)(=O)c2nnc(NC(=O)C3CCCCC3)s2)c1
17	COc1ccc(NC(=O)CSc2nnc(Cc3cccn3C)n2-c2ccc(F)cc2)cc1OC
16	Cc1ccc(/C=C(\NC(=O)c2ccccc2)C(=O)NCCN2CCOCC2)o1
15	CCOc1ccc(C2N(c3ccc(F)cc3)C(=O)C3CCCN32)cc1OC (centres undefined)
19	CCOC(=O)N1CCN(Cc2nc3c(c(=O)n(C)c(=O)n3C)n2CCC(C)C)CC1
5	CC(NC(=O)c1cc(S(=O)(=O)N2CCCC2)cn1C)c1ccccc1 (centres undefined)
5	CC(=O)Oc1ccc(-c2cc3c(OC(C)=O)cc(OC(C)=O)cc3oc2=O)cc1
5	COc1ccc(N2CSC3=C(C#N)C(c4cc(OC)c(OC)cc4OC)CC(=O)N3C2)c(OC)c1 (centres undefined)
8	Cc1cc2c(cc(C(=O)N3CCC(C(=O)NC4CCCC4)CC3)n2Cc2c(F)cccc2Cl)o1
20	CCN1CCN(CCNC(=O)c2ccc(CS(=O)(=O)c3c(Cl)cccc3Cl)o2)CC1
20	Cc1ccc(-c2nn3c(C)nnc3s2)cc1NC(=O)c1ccc(Br)o1
5	Cc1ccc(-c2nc(CS(=O)CC(=O)N3CCN(c4ncccn4)CC3)c(C)o2)cc1 (centres undefined)
3	Cc1ccc2oc(=O)c3cnn(CC(=O)NCCC(C)C)c3c2c1
5	CCN1CCN(Cc2nc3c(c(=O)[nH]c(=O)n3C)n2Cc2ccccc2Cl)CC1
21	CCOc1ccc(Cn2nnc(C(=O)NCCc3ccc(Cl)cc3)c2N)cc1
7	COc1ccc2c(=O)c(-c3ccc(OC)c(OC)c3)coc2c1
3	O=C(Cn1cnc2c(nnn2Cc2ccccc2)c1=O)NCC1CCCO1 (centres undefined)
-3	Cc1c(Cc2ccccc2)c(=O)oc2c(C)c(OC(C)C(=O)NCC3CCC(C(=O)O)CC3)ccc12 (centres undefined)
2	COc1ccc(CNC(=O)C(=O)NCC2OCCN2S(=O)(=O)c2ccc3c(c2)OCCO3)cc1 (centres undefined)
6	Cc1ccccc1NC(=S)NC(C)C(c1cccs1)N1CCOCC1 (centres undefined)
9	CC/C=C\[C@H](O)[C@H](O)C1=C(C)C(=O)[C@]2(O1)C(=O)N[C@@](OC)(C(=O)c1ccccc1)C2O (some centres undefined)
2	Cc1cc2cc(CNC(=O)c3ccco3)ccc2n1C
10	Cc1cccc(C)c1NC(=O)c1cc(S(=O)(=O)N2CCc3ccccc32)cn1C
1	Cc1csc2nc(CNC(=O)C3CC=CCC3C(=O)O)cn12 (centres undefined)
-13	CCc1nnc(NC(=O)c2cccc(S(=O)(=O)N3CC(c4ccccc4)CC3=O)c2)s1 (centres undefined)
13	CN(C)S(=O)(=O)c1ccc2c(c1)c(=O)c(C(=O)NCCCN1CCCCCC1)cn2C
7	Cc1c(C)c2ccc(OCC(=O)NCCc3c[nH]c4ccccc34)cc2oc1=O
6	Cc1ccc2c(c1)N(CC(=O)NCCCN1CCOCC1)C(=O)c1cccnc1O2
-2	CC(C)c1nc(SCC(=O)N2CCCc3ccccc32)c2c(=O)n(C)c(=O)n(C)c2n1
9	CCN1C(=O)CSc2ccc(C(=O)OC)cc21
2	COc1ccc(CNC(=O)CCC(=O)N2CC(C)Oc3ccccc32)cc1 (centres undefined)
3	Cc1c(CC(=O)NCC(=O)NCC(=O)N[C@@H](Cc2ccccc2)C(=O)O)c(=O)oc2c(C)c(O)ccc12
10	COc1cccc(-c2nc3n(n2)C(c2cccs2)C(C(=O)Nc2cccnc2)=C(C)N3)c1 (centres undefined)
8	CCOC(=O)C1=C(C)Nc2nc(C)nn2C1c1ccc(OCC)c(OC)c1 (centres undefined)
7	CC(=O)CCc1ccccc1

Some of the entries above, set out differently.
Molecule | Hedgehog cleavage
Cc1c(CC(=O)NCC(=O)NCC(=O)N[C@@H](Cc2ccccc2)C(=O)O)c(=O)oc2c(C)c(O)ccc12 | 3
COc1cccc(-c2nc3n(n2)C(c2cccs2)C(C(=O)Nc2cccnc2)=C(C)N3)c1 (centres undefined) | 10
CCOC(=O)C1=C(C)Nc2nc(C)nn2C1c1ccc(OCC)c(OC)c1 (centres undefined) | 8
CC(=O)CCc1ccccc1 | 7

Later entries:
Hedgehog cleavage	Molecule
6	Cc1ccc(C)c(-n2c(CNC(=O)c3ccco3)nnc2SCC(=O)Nc2nnc(C)s2)c1
21	Cc1ccc(NS(=O)(=O)c2coc(C(N)=O)c2)cc1F
10	CCCCCn1c(C(Cc2ccccc2)NC(C)=O)nc2ccccc21 (centres undefined)
6	c1ccc(Cc2nnc3sc(-c4ccc5c(c4)OCCO5)nn23)cc1
7	CN(CC(=O)NCCC1=CCCCC1)S(=O)(=O)c1ccc2c(c1)CCC(=O)N2
2	Cc1ccc(NS(=O)(=O)c2ccc3c(c2)CC(=O)N3)cc1C
8	CC(C)[C@@H](C(=O)N[C@@H](C(=O)O)c1ccccc1)N1C(=O)N2CCc3c([nH]c4ccccc34)[C@@]2(C)C1=O
7&2	CC(Oc1ccc2c(-c3ccccc3)cc(=O)oc2c1)C(=O)NCC1CCC(C(=O)O)CC1 (centres undefined)
8	O=C(Cn1cc2c(n1)CCCC2)NCCCN1CCN(c2ccccc2F)CC1
0	Cc1nn(CCCC(=O)NCc2ccc(F)cc2)c(=O)c2nccn12
2	Cc1cc(OC(C)C(=O)N(Cc2cccs2)C2CCS(=O)(=O)C2)ccc1Cl (centres undefined)
0	COc1ccc(NC(=O)CC2SC(=Nc3ccccc3)NC2=O)c(OC)c1 (centres undefined)
3	COc1cc(-c2cc(=O)c3c(O)cc(O)cc3o2)cc(OC)c1OC
5	Cc1c(OCC(=O)N[C@H](C(=O)O)c2ccccc2)ccc2c3c(c(=O)oc12)CCCC3

Given as labelled records: part of the list above
Cc1ccc(NS(=O)(=O)c2ccc3c(c2)CC(=O)N3)cc1C
  Hedgehog cleavage = 2
CC(C)[C@@H](C(=O)N[C@@H](C(=O)O)c1ccccc1)N1C(=O)N2CCc3c([nH]c4ccccc34)[C@@]2(C)C1=O
  Hedgehog cleavage = 8

Assay outcomes as filed in PubChem.
